Assay outcomes deposited in PubChem BioAssay by National Center for Advancing Translational Sciences (NCATS).
Menin-MLL FL inh = qHTS Assay for Inhibitors Targeting the Menin-MLL Interaction in MLL Related Leukemias: Competition With Fluorescein Labeled MLL-derived Peptide; Fluorescence polarization, fluorescein-MLL peptide displacement from menin; FP activity change, % at 61.4 µM; 290,000 tested, under 10 active; AID 1766, 2009; inconclusive = falling polarisation curve, or a change in total fluorescence; inactive = total fluorescence flat and polarisation flat or rising; no compound was filed as active; the % refers to the polarisation; negative = inhibition;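 note: % of control where 0% means no effect; inhibitors lower the polarisation; unlabelled MLL peptide was the positive control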
gsp ag = qHTS for Agonist of gsp, the Etiologic Mutation Responsible for Fibrous Dysplasia/McCune-Albright Syndrome: qHTS; Potency, µM (doses to about 76.9 µM), for inactives: at the highest dose activation (cAMP increase), hits mostly activators; hit rate 0.13% among 340,000; gsp mutant cells, cAMP HTRF, 30 min; control for the full effect not named in the record; active = well fitted activation curve with a large enough effect; inconclusive = small, poorly fitted or top-dose-only effect, or another doubt; inactive = no such curve, though single readings can be large or run the other way; cell line not stated here;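 note: phosphodiesterase inhibitor Ro 20-1724 added with compounds to block cAMP breakdown; potency is the fitted concentration of half-maximal effect; nearly all actives have a fitted effect of over 60% in size; about a fifth of the inactives were tested at one dose only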
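Cells stably selected in G418 were plated at 2000/well, grown 16-24 hr, then given compounds in DMSO with the PDE inhibitor […] (300 uM solution added) for 30 min at 37C; cAMP was read by HTRF.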
TRPML1 inh = qHTS for Inhibitors of the Human Mucolipin Transient Receptor Potential 1 (TRPML1); Mucolipin-1 (Homo sapiens), Q9GZU1; TRPML1-inducible cells, Ca2+ dye fluorescence, FDSS; active compounds read low; inhibition of EC80 agonist-evoked calcium signal; activity change, negative = inhibition, % (test concentration not listed); hit rate 0.02% among 390,000; in the data active means activity change below about -50%; inconclusive means about -30% to -50%; inactive means above about -30%;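 note: stimulus is agonist 54-4 at its EC80 concentration; % is set by controls: 0 for no effect and ±100 for the full control effect; compound concentration not given in the record; the text of the record puts the active cut at -80%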
Target sequence (Q9GZU1 whole entry, looked up): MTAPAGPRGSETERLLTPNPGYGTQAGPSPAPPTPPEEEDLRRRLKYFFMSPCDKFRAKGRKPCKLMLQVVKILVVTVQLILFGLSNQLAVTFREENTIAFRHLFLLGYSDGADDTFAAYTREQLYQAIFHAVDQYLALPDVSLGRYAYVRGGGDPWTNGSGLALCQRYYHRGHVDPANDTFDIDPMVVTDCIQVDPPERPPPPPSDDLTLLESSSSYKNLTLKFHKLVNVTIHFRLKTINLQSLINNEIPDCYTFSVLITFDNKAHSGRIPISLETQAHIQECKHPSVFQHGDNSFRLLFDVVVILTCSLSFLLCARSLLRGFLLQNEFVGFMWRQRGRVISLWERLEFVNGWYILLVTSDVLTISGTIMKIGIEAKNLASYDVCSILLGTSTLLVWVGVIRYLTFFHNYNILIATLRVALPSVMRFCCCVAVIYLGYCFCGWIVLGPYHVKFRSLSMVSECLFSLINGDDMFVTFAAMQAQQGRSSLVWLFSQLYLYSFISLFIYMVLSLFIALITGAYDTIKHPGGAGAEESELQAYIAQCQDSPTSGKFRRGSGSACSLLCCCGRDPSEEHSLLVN
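Calcium fluorescence in TRPML1-DL cells induced overnight with Tet: a 110 s read after compound pin addition, then a 110 s antagonist read after challenge with 54-4 at 4 uM final (EC80).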
gsp antag = qHTS for Antagonists of gsp, the Etiologic Mutation Responsible for Fibrous Dysplasia/McCune-Albright Syndrome: qHTS; gsp-mutant cells, cAMP HTRF, 30 min; control for the full effect not named in the record; hit rate 0.4% among 340,000; AID 624288, 2012; Potency, µM (series often up to 76.9 µM), for the others: at the top dose activity change, negative = inhibition, hits mostly inhibitors; active = falling curve of any shape with a large fitted effect; inconclusive = falling curve, mostly with a smaller effect; inactive = flat or rising curve; cell line not stated here;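 note: intracellular cAMP measured with PDE inhibitor Ro 20-1724 present during compound exposure; potency is the fitted concentration of half-maximal effect; % is set by controls: 0 for no effect and ±100 for the full control effect; nearly all actives have a fitted effect of over 65% in size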
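Cells in G418 medium, seeded 16-24 h, 37C; buffer exchange to DPBS + 1 mM CaCl2, 0.5 mM MgCl2, 0.05% BSA; cpds in DMSO + […] (300 uM stock), 30 min 37C; HTRF cAMP detection.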
ClpP mod = qHTS Assay for Activators of ClpP | ATP-dependent Clp protease proteolytic subunit (Bacillus subtilis (strain 168)), P80244 | purified B. subtilis ClpP, FRET peptide cleavage, 20 min | Potency, µM (top dose mostly 57.5 µM), without a hit: at the top dose activity change, negative = active | hit rate 1.9% among 340,000 | AID 651965, 2013; active = well fitted falling curve with a large enough effect; inconclusive = small, poorly fitted or top-dose-only effect; inactive = no such curve, though single readings can be large or run the other way; note: potency is the fitted concentration of half-maximal effect; the source files actives as falling curves though it sought activators and does not explain the sign; nearly all actives have a fitted effect of over 65% in size; many hits overshoot -100%
Target sequence (P80244 whole entry, looked up): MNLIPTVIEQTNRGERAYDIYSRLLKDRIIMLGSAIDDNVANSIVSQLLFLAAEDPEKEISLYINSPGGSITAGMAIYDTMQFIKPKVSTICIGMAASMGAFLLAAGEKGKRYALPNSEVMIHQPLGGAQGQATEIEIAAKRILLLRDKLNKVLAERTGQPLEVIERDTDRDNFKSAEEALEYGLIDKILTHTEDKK
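FRET quenching reversal measured ClpP activation: 10 microg/mL B. subtilis ClpP at pH 8 with the FRET-FV decapeptide, read at 430 nm after 320 nm excitation. The 20-min minus 0-min signal was scaled between DMSO/no-enzyme wells and ADEP (5.8 microM final).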
TRPML1 agonist = qHTS for Agonists of the Human Mucolipin Transient Receptor Potential 1 (TRPML1); hit rate 0.12% among 410,000; activation, % (no concentration beside the values); Mucolipin-1 (Homo sapiens), Q9GZU1; AID 624414, 2012; TRPML1-expressing cells, Ca2+ dye fluorescence, FDSS; host cell line not named in the record; reference of the full effect not given here; in the data active = activation above about 50%; inconclusive = about 30% to 50%; inactive = below about 30%; note: 0% is about no effect; the text of the record puts the active cut at 80%
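Agonist activity was taken from a 110 s kinetic Ca2+ dye read on the FDSS after pinning compounds onto TRPML1-DL cells. The cells were seeded at 1,500/well with Tet inducer, incubated about 16 h, then dye-loaded at room temperature.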
* hit, by the source's call; ? = inconclusive; · = not tested or not shown; [ ] = remark or other dose.

SMILES	Menin-MLL FL inh	gsp ag	TRPML1 inh	gsp antag	ClpP mod	TRPML1 agonist
O=C(Nc1nnc(-c2ccc3c(c2)CCCC3)o1)c1ccccc1Cl	0.0	8%	11	?	-4.6%	-1.2
COC(=O)c1ccc(COc2ccccc2/C=N/NS(=O)(=O)c2ccc(C)cc2)cc1	1.2	-3%	9	-5%	-1.1%	1.4
Cn1c(C(=O)NCCCN2CCc3ccccc3C2)cc2c(=O)n(C)c3ccccc3c21	1.1	-7%	24	-1%	3.9%	1.8
CCN1C(=O)[C@H]2[C@@H](c3ccc(C)cc3)N[C@]3(CCCN(Cc4ccc(C(F)(F)F)cc4)C3=O)[C@H]2C1=O	·	-31%[inhibitor]	0	·	-0.7%	0.3
Cc1ccc(S(=O)(=O)N(Cc2cccc([N+](=O)[O-])c2)C(=O)N2CCN(C)CC2)cc1	·	-10%	31	13%	-1.2%	0.0
O=C(CC1C[C@H](C(=O)N2CCOCC2)[C@@]2(CCC3CCCC3)c3[nH]c4ccccc4c3CCN2C1=O)NCCCn1ccnc1 (some centres undefined)	·	·	39	2%	1.5%	-0.9
COc1ccc(C(=O)NNC(=S)NC(=O)c2cc(-c3ccccc3)nc3ccccc23)cc1	-1.2	-24%[15.4 µM]	-3	0%	-7.6%	5.2
O=C(NCc1ccccn1)C1CCN(S(=O)(=O)c2cc(Cl)ccc2Cl)CC1	0.3	-3%	13	6%	·	5.8
CC(OC(=O)c1cc(Br)ccc1O)C(=O)NCc1ccc2c(c1)OCO2 (centres undefined)	·	-1%[15.4 µM]	-10	-11%	·	-0.3
COC(=O)N(NC(=O)C(O)(c1ccccc1)c1ccccc1)c1ccc(C)cc1	7.7	-62%[inhibitor]	6	-1%	1.4%	3.6
O=C(NC1CCCC1)c1ccc(CS(=O)Cc2ccc(Cl)cc2)o1 (centres undefined)	·	9%	-6	1%	0.1%	-1.1
COc1ccccc1NC(=O)COc1cccc2c1CCNC2=O	·	1%[15.4 µM]	2	-4%	·	-0.9
O=C(NC1CC2CCC(C1)N2Cc1ccccc1)c1ccccc1Cl (centres undefined)	3.9	-2%	-2	6%	-0.8%	0.3
CC(C)N1CCN(c2ccc(OCC3COC(Cn4cncn4)(c4ccc(Cl)cc4Cl)O3)cc2)CC1 (centres undefined)	·	-1%	-11	6%	-11%	2.8
CC1CCC(NC(=O)CSc2nnc(-c3cccnc3)o2)CC1 (centres undefined)	·	-53%[inhibitor]	-15	-3%	-1.4%	-0.1
Cc1ccc(N(Cc2cc(=O)[nH]c3ccccc23)C(=O)C(C)C)c(C)c1	-6.7	-9%	21	-3%	·	2.2
COc1ccc(-c2csc(N3C(=N)SCC3=O)n2)cc1	0.8	?	6	-7%	0.8%	1.9
CC(C)N(C(=O)[C@H]1CC(CC(=O)NCc2ccco2)C(=O)N2CCc3c([nH]c4ccccc34)[C@]12C)C(C)C (some centres undefined)	·	·	-9	-3%	-1.3%	-0.9
CC(Sc1ccccn1)C(=O)Nc1ccc2c(c1)OCO2 (centres undefined)	·	16%	12	-6%	-0.5%	0.7
CC1(C)Cc2c(cnn2-c2ccc(F)cc2)C(NC(=O)CCN2CCCCC2=O)C1 (centres undefined)	·	-25%	-7	3%	1.2%	0.0
CCOc1ccccc1C(=O)Nc1nnc(Cc2ccc(OC)c(OC)c2)s1	-0.9	?	·	1%	-5.0%	·
ON1C2CCCCC2N(O)C1c1ccccc1C(F)(F)F (centres undefined)	-1.9	-42%[inhibitor]	-12	1%	-0.2%	0.5
O=C(N/N=C/c1cccs1)c1ccc2nc[nH]c2c1	-0.7	11%	7	-8%	-2.3%	0.9
CCCN1C(=O)/C(=N\OCC(=O)NCC(F)(F)F)c2ccccc21	2.6	?	11	1%	1.2%	-0.6
NS(=O)(=O)c1cccnc1Nc1cccc(Cl)c1	3.5	1%	-8	12%	-4.4%	-0.5
Cc1cc(NC(=O)c2ccccc2)n(-c2nc3ccccc3[nH]2)n1	1.0	0%	45	3%	-23%	4.2
CC(C(=O)Nc1ccccc1-c1ccccc1)N1CCN(S(=O)(=O)c2ccccc2)CC1 (centres undefined)	2.1	11%	6	-12%	-6.5%	0.5
Cc1nnc(SCc2ccc(Cl)cc2)n1CC1CCCO1 (centres undefined)	0.1	0%	-4	-2%	0.3%	0.5
CCC1=C(C)CN(C(=O)NCCc2ccc(S(=O)(=O)NC(=O)NC3CCC(C)CC3)cc2)C1=O (centres undefined)	-4.5	·	0	?	0.4%	-0.1
O=C(COC(=O)Cc1cccc(C(F)(F)F)c1)NCc1ccco1	·	?	-9	-1%	-2.7%	3.0
Cc1onc(-c2ccccc2Cl)c1C(=O)Nc1ccccc1C(=O)NC(C)C	1.5	-26%	6	-2%	-5.4%	1.0
O=c1c2ccccc2nc(SCc2cccc(F)c2)n1-c1cccc(S(=O)(=O)N2CCCC2)c1	0.9	-37%[inhibitor]	-17	-4%	-13%	-0.2
COc1ccc(-c2nc(N)ncc2-c2ccccc2OC)c(O)c1	-2.6	1%	23	-5%	-2.8%	2.4
COc1ccc(C(=O)Nc2cc(S(=O)(=O)N3CCCC3)ccc2Cl)cc1	·	-5%	47	-6%	?	0.8
O=C(Nc1ccc(Cn2cccn2)cc1)c1ccc(COc2cccc(Br)c2)cc1	1.8	14%	-2	9%	-18%	0.9
CCc1ccc(-n2c(=S)sc3c(=O)[nH]c(SCC(=O)NC4CCCCC4)nc32)cc1	·	28%	-4	·	-1.5%	-0.3
CCN(CC(=O)Nc1c(F)cccc1F)C(=O)c1cccn1C	·	-62%[inhibitor]	8	·	-1.6%	-0.2
Cn1nc(C(F)(F)F)c(C(=O)Nc2ccc(C(F)(F)F)cc2)c1Cl	0.4	1%	26	-5%	-2.0%	1.2
Cc1nn(C)c(C(=O)NNC(=S)NC2CCCCC2)c1Br	1.1	-9%	-7	2%	0.6%	1.2
Cc1cc(C)c(S(=O)(=O)c2ccc(Cl)cc2C)c(Cl)n1	1.9	4%[15.4 µM]	49	-17%	·	2.1
COc1ccc(/C=C/c2cc(=O)c3cc(Cl)ccc3o2)cc1	3.2	20%	-12	?	-16%	0.3
CC(C)Oc1cccc(C(=O)NC(=S)N2CCN(c3ccc(C(F)(F)F)cc3[N+](=O)[O-])CC2)c1	-0.4	15%	27	-23%	1.3%	0.8
Cc1cc(C)c(NC(=S)NC(NC(=O)c2ccccc2)C(Cl)(Cl)Cl)c(C)c1 (centres undefined)	8.6	12%[15.4 µM]	13	?	-1.6%	2.6
CCc1c(C(=O)OC)nnc2cc(C)nn12	13	2%	1	12%	1.0%	-0.1
COCCn1c(C)cc(C(=O)COc2ccc(C)nc2[N+](=O)[O-])c1C	-11	2%	-2	?	2.2%	-0.1
CCN1C(=O)CS/C1=N\c1nccs1	-1.4	35%	1	3%	-2.3%	-0.8
O=C(O)c1ccc(Cl)c(S(=O)(=O)N2CCCC2)c1	1.2	6%	16	7%	-0.3%	-0.4
CCN(CC)CCC(=O)N1c2ccccc2CCc2ccc(NC(=O)OC)cc21	-1.2	7%	?	11%	1.2%	0.2
CC(C)c1ccc(/C=C(\NC(=O)c2ccccc2)C(=O)NCCCN2CCOCC2)cc1	-1.2	1%[15.4 µM]	23	13%	·	-0.1
Cc1ccsc1C1C(C(=O)O)c2ccccc2C(=O)N1C (centres undefined)	-2.5	-4%	-3	-3%	-0.7%	-0.6
Cc1ccc(-n2ncc3c(N4CCC5(CC4)OCCO5)ncnc32)c(C)c1	-5.4	-71%[inhibitor]	-11	-19%	-14%	0.0
CCCCN(CC)c1nc(N)c2c(N)nc(OCC)cc2c1C#N	1.4	9%	2	4%	3.8%	7.9
COCCn1c(SCC#N)nnc1-c1ccc2c(c1)OCO2	0.8	-7%	11	6%	-2.2%	-0.1
COc1ccc(OC)c(NC(=O)c2cc3c(=O)n4ccccc4nc3n2C)c1	2.9	?	-1	6%	·	0.2
Cc1ccccc1NCC(=O)N/N=C\C=C\c1cccc([N+](=O)[O-])c1	1.7	-49%	1	-25%	-0.2%	0.5
CC(=O)OC(Cn1ccnc1)c1ccccc1 (centres undefined)	4.6	30%	-4	-5%	-0.9%	-0.6
Cc1cccc(C)c1-n1c(C)nn(-c2ncc(C(F)(F)F)cc2Cl)c1=O	-1.3	-3%[15.4 µM]	0	-30%	·	-1.3
CCN(CC)C(=O)CSc1nc2cc3c(cc2c(=O)n1Cc1ccc(C(=O)NCCc2ccc(OC)c(OC)c2)cc1)OCO3	·	·	4	·	-0.8%	1.5
C=CCN(CC=C)S(=O)(=O)c1ccc(NC(=S)NC(=O)/C=C/c2ccccc2)cc1	0.1	-1%	-6	-11%	0.7%	-0.6
CCOC(=O)C1CCN(C(=O)C2CCN(S(=O)(=O)c3cc(Cl)ccc3Cl)CC2)CC1	3.3	-26%	18	-12%	-1.6%	0.3

Exported with values under each structure: part of the list above.
Under each structure: Menin-MLL FL inh | gsp ag | TRPML1 inh | gsp antag | ClpP mod | TRPML1 agonist
- O=C(O)c1ccc(Cl)c(S(=O)(=O)N2CCCC2)c1
  1.2 | 6% | 16 | 7% | -0.3% | -0.4
- CCN(CC)C(=O)CSc1nc2cc3c(cc2c(=O)n1Cc1ccc(C(=O)NCCc2ccc(OC)c(OC)c2)cc1)OCO3
  · | · | 4 | · | -0.8% | 1.5
- CCCCN(CC)c1nc(N)c2c(N)nc(OCC)cc2c1C#N
  1.4 | 9% | 2 | 4% | 3.8% | 7.9
- Cc1ccc(-n2ncc3c(N4CCC5(CC4)OCCO5)ncnc32)c(C)c1
  -5.4 | -71%[inhibitor] | -11 | -19% | -14% | 0.0
- COCCn1c(C)cc(C(=O)COc2ccc(C)nc2[N+](=O)[O-])c1C
  -11 | 2% | -2 | ? | 2.2% | -0.1

Later entries
SMILES	Menin-MLL FL inh	gsp ag	TRPML1 inh	gsp antag	ClpP mod	TRPML1 agonist
O=C(Nc1ccc2c(c1)OCO2)c1ccc(=O)[nH]n1	-8.1	-7%	·	-15%	-0.1%	·
Cc1ccccc1Cn1nnc(-c2cccc(C(=O)O)c2)n1	2.4	-9%	-13	-7%	-1.8%	0.9
COc1ccccc1N1CCN(C2CCCN(S(=O)(=O)c3cccc(Cl)c3)C2)CC1 (centres undefined)	5.5	?	14	-17%	-1.3%	3.4
COc1ccc2c(c1)-c1c(ssc1=S)C(C)(C)N2C(=O)CSC1=NCCS1	0.9	18%	-8	-15%	-0.8%	0.9
